PrP 5UTR inh: inhibition of PrP 5' UTR reporter expression; inhibition, % (no concentration beside the values); 0.35% of 340,000 active; AID 488862; cell-based PrP 5' UTR mRNA reporter, plate reader;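 active = every replicate at 50% or more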;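 note: 0 = median of the neutral control wells; tested in H4 reporter cells; numbers are from one replicate; inactives centre near -14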
BJeLR lethal: BJeLR cell viability loss; BJeLR (HRASV12) viability, CellTiter-Glo ATP luminescence, 48 h; reference of the scale not given here; inhibition, % (test concentration not listed); 0.17% of 300,000 active; AID 1554;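 active = replicate mean above 50%; inconclusive = above 50% but judged a plate artefact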;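 note: 50 nL library stock added to about 25 µL; numbers are from one replicate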
Autofluor counter: counter-screen for toxin protease inhibitors: compound fluorescence | compound autofluorescence counterscreen, microsphere flow cytometry; hits give high values | fluorescence intensity (no concentration beside the values) | 3.1% of 360,000 active | AID 624483;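 active = at least 3 SD above the mean of all compounds, about 16000 in these data; inconclusive = too few beads counted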;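 note: 100 nL of 1 mM stock went into each well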
ugtP null kill: compounds lethal to S. aureus RN4220 ugtP deletion mutant; 0.54% of 330,000 active; growth inhibition, % (test concentration not listed); AID 1259309; OD600 growth, 16 h; some inactives read as strong as hits;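 active = z-score under -3 and OD600 up to 0.15 on both plates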;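 note: plate controls were untreated wells for no effect and antibiotic for full effect; wells of about 80 µL received 100 nL stock; the first replicate is given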
RN4220 kill: kills Staphylococcus aureus RN4220; S. aureus RN4220 growth, OD600, 16 h; inhibition, % (concentration not given with the values); AID 1259311; 0.33% of 330,000 active;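 active = z-score of -3 or lower and OD600 up to 0.18 on both plates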;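 note: plate controls were untreated cells for no effect and reference antibiotic for full effect; stock transfer was 100 nL into about 80 µL; one replicate is shown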
Mtb hypoxia inh: Mtb hypoxia fluorescent reporter inhibition; M. tuberculosis hypoxia-regulated fluorescent reporter, fluorescence; fluorescence inhibition, % (concentration not given with the values); 0.1% of 300,000 active;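 active = 35 to 45% if threefold the growth effect, above 45% if 1.5-fold the growth effect; inactive = the rest, general growth blockers included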;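 note: wells of about 50 µL received 100 nL stock; 0% = vehicle wells and 100% = reference inhibitor wells; whole bacteria with a GFP reporter of the hypoxia response; strong numbers were not always called active; many hits fall short of the cut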
Mtb hypoxia inh growth: recorded beside Mtb hypoxia inh, whose call it bears; growth inhibition, %; measured here: M. tuberculosis growth (absorbance);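 0% = vehicle and 100% = reference antibiotic; read after six days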
Starred values were filed as active, the others as inactive; ? = inconclusive; . = no result given.

SMILES | PrP 5UTR inh | BJeLR lethal | Autofluor counter | ugtP null kill | RN4220 kill | Mtb hypoxia inh | Mtb hypoxia inh growth
O=C(OC1CCCCC1)c1ccc(NC(=O)c2ccco2)cc1 | -71 | 12 | 4747 | 17 | 1.6 | . | .
CCCc1cc(=O)oc2c3c(c4c(c12)OC(C)(C)C=C4)OC(C)C(C)C3O (stereo not given) | 23 | -9 | 4175 | . | . | . | .
Cc1onc(C(=O)Nc2ccccc2C(F)(F)F)c1[N+](=O)[O-] | -5 | 0 | 6184 | -3 | -0.4 | -4 | -5
Cc1ccc(CSc2nnc(SCC(=O)N/N=C/C=C/c3ccco3)s2)cc1 | -5 | -3 | 2560 | . | . | . | .
NNC(=O)c1nnn(-c2nonc2N)c1CN1CCCC1 | -7 | 1 | 3683 | 1 | 3.2 | 6 | 9
COc1ccccc1N1C(=O)c2cccc3c(Cl)ccc(c23)C1=O | -32 | -7 | 3610 | 7 | -2.3 | 16 | 8
O=c1[nH]c(N2CCCCC2)nc2c1CCCC2 | -9 | 2 | 6826 | 2 | -1.2 | 2 | -1
CCOC(=O)c1sc2nccc(OC)c2c1N=CNOC | -12 | -5 | 3755 | 8 | 7.1 | 9 | 3
Cc1cc(=O)oc(C)c1C(=O)Nc1ccc2nsnc2c1 | -21 | 7 | 3140 | 1 | 7.9 | 11 | 8
NC(=O)c1cc(S(=O)(=O)NCc2ccc(Br)cc2)cs1 | -22 | 1 | 5970 | 10 | 4.6 | 10 | 1
COc1ccc(C(c2nnnn2CC2CCCO2)N2CCN(c3ccccc3)CC2)cc1 (stereo not given) | 2 | -3 | 2480 | 9 | 0.9 | . | .
O=[N+]([O-])c1cc(S(=O)(=O)N2CCCC2)ccc1N/N=C/c1cccs1 | -22 | -3 | 4088 | . | . | . | .
CN(C)CCNc1nc(-c2ccccc2)nnc1C(F)(F)F | -14 | 5 | 3490 | 6 | 4.5 | . | .
Cc1cc(C(=O)Nc2sc3c(c2C#N)CCCC3)no1 | . | -1 | 9715 | -2 | 4.7 | 7 | 5
O=C(NN1C(=O)C2C3c4ccccc4C(c4ccccc43)[C@@H]2C1=O)c1ccccc1 (stereo not given in full) | -33 | -5 | 2132 | -6 | 8.2 | 6 | 8
COc1ccc(CC(=O)NC2CC2)cc1OC | -5 | -2 | 3532 | -5 | 0.4 | -6 | -4
C=CCN1C=CC(=O)CC1 | -3 | -7 | 3029 | -2 | 4.8 | 6 | 8
CC(C)(C)NC(=O)C(c1ccco1)N(C(=O)Cn1nnc(-c2ccc(F)cc2)n1)c1cccc(F)c1 (stereo not given) | -3 | 1 | 22593* | 4 | 7.3 | 10 | 3
Cc1cc2ccccn2c1C(=O)Nc1ccccc1 | -45 | -1 | 3804 | 9 | 6.3 | -7 | -1
CSCCNC(=O)c1ccc2nc(C3CCCCC3)oc2c1 | -24 | -7 | 3813 | 4 | -2.3 | 12 | 0
CN(C(=O)c1ccno1)c1nnc(-c2cnccn2)s1 | 0 | -1 | 3936 | -2 | -2.4 | 13 | 4
Cc1ccc(S(=O)(=O)N2[C@@H](c3ccc(Cl)c(Cl)c3)C(C(=O)O)=C[C@H]2C(C)(C)C)cc1 | -16 | . | 3941 | -4 | 5.5 | -1 | 2
Cn1ncc(Cl)c1C(=O)Nc1ccc(CN2CCCCC2)cc1 | -22 | -5 | 4823 | 4 | 1.7 | 4 | 6
Cn1cc(Cl)c(C(=O)Nc2nc3ccc([N+](=O)[O-])cc3s2)n1 | -12 | -2 | 2059 | . | . | . | .
Cc1cc(C)n2c(=O)c3ccc(Cl)cc3nc2c1C#N | -26 | 2 | 4301 | 14 | -0.4 | 5 | 9
Cc1ccc2c(CN3CCN(S(=O)(=O)c4ccc5c(c4)OCCO5)CC3)cc(=O)oc2c1C | -15 | 8 | 4799 | 8 | -4.4 | . | .
O=C(CCCc1ccccc1)NCc1cccnc1 | -2 | 2 | 24595* | 5 | 1.9 | -2 | -1
CCSc1nnc(NC(=O)CSc2nnc(CNC(=O)c3cc(OC)c(OC)c(OC)c3)o2)s1 | -6 | -8 | 2468 | 6 | 2.0 | -5 | -8
O=C1CSC(c2cccc([N+](=O)[O-])c2)N1c1ccccc1F (stereo not given) | -4 | -17 | 4263 | 3 | 16 | 3 | 5
COc1ccc(NC(=O)c2ccc3nc(-c4ccccc4)c(-c4ccccc4)nc3c2)c(OC)c1 | -9 | 6 | 2048 | 6 | 3.8 | 8 | -5
O=C1CNC(=S)N1Cc1ccccc1Cl | -16 | 1 | 3702 | 2 | 1.0 | -1 | 6
CC(C)(C)C(=O)NC(=S)Nc1ccccc1N1CCCC1 | -14 | 0 | 2461 | 21 | 2.2 | 1 | -7
CC(C)c1ccc(NC(=S)N(C)CCc2ccccn2)cc1 | -47 | -2 | 4519 | 8 | -0.2 | 16 | 8
O=C(O)CCN1C(=O)C2C3CC(C2C1=O)C1C(c2ccccc2)c2sc(=O)n(-c4ccccc4)c2SC31 (stereo not given) | -11 | 17 | 4728 | -6 | 9.3 | 10 | -1
CCOC(=O)N1CCN(c2ccnc3cc(Cl)ccc23)CC1 | -1 | -6 | 5715 | 6 | 1.6 | 12 | 15
CNC(=O)c1ccsc1NC(=O)C1CCN(S(=O)(=O)c2ccc(Cl)s2)CC1 | -16 | 5 | 5174 | -11 | -0.5 | 2 | 1
Cc1ccc(-c2ccccc2)n1-c1ccc(C(=O)O)cc1 | -24 | 0 | 2814 | 4 | 10 | 12 | 11
FC(F)(F)c1nnc(Nc2ccc(Cl)cc2)s1 | -68 | -14 | . | -29 | 2.3 | 13 | -1
COc1ccc(OCC(=O)OC2CCCN(C)C2)cc1 (stereo not given) | -14 | -1 | 3824 | 2 | 2.2 | 11 | 8
CCc1nc2ccccc2n1Cc1cc(=O)n2cc(C)ccc2n1 | -5 | . | 4188 | 3 | 4.5 | . | .
Cc1nnc(NC(=O)c2ccc(S(=O)(=O)N3CCCCC3C)cc2)o1 (stereo not given) | -11 | -2 | 4086 | -7 | 0.7 | -1 | 0
O=C(Cc1coc2ccc3ccccc3c12)N1CCN(c2ncccn2)CC1 | -8 | 3 | 9398 | 2 | 3.7 | 3 | 7
Cc1ccc2cc3c(N)c4c(C)ccc(C)c4nc3nc2c1 | -18 | -3 | 1713 | -5 | 10 | 16 | -10
C=CSc1sc(Cl)c(N(CC)CC)c1[N+](=O)[O-] | -21 | 17 | 4528 | 10 | 7.1 | 7 | -2
CCN(CC)C(=O)COc1ccc(-c2ccccc2)cc1 | -49 | 1 | 3261 | -4 | -9.1 | 10 | 4
COCc1cc(C)n(CC(=O)Nc2ccccc2OC)c(=O)c1C#N | -11 | 0 | 3443 | 0 | 2.2 | 2 | 0
Nc1ccnn1-c1ccccc1 | -24 | -3 | 3478 | 3 | 0.8 | -16 | -2
Cc1nc2nc(COc3ccccc3)[nH]n2c(=O)c1Cl | -14 | 13 | 9557 | 11 | 4.0 | 3 | -4
CC(=O)c1ccc(OCc2cc(C(=O)N3CC4C[C@@H]5CC3C[C@H](C4)C5)no2)cc1 | -72 | -2 | 5448 | -2 | 5.0 | 8 | 7
Cc1nc2ccccc2c2c(N)c3ccccc3n12 | -30 | 0 | 4739 | -1 | 7.7 | 1 | 10
CC(=O)c1ccc(OCC(=O)c2cc(C)n(-c3ccc4c(c3)OCO4)c2C)cc1 | -16 | 11 | 2529 | -6 | 2.6 | -9 | -2
Cc1ccc(S(=O)(=O)N(CC(=O)NCC2CCCO2)Cc2cccc(C)c2)cc1 (stereo not given) | -36 | 2 | 4639 | 10 | 1.1 | 6 | -4
O=C(Cn1ccc2ccccc2c1=O)NCC(=O)N1CCN(c2ccc(F)cc2)CC1 | -6 | -12 | 4456 | 0 | 1.5 | -2 | 0
O=C(Oc1nsnc1N1CCOCC1)c1ccccc1 | -22 | 7 | 11236 | 10 | 4.9 | 5 | 10
COc1cc(/C=C2\SC(N)=NC2=O)ccc1OCC(=O)Nc1ccc(C)cc1 | 8 | -9 | 2492 | -8 | 5.8 | 53* | 31*
CC1(C)Cc2cccc(OCC(=O)Nc3ccccc3C(F)(F)F)c2O1 | 10 | -6 | ? | 11 | 3.3 | 1 | -4
CCOc1ccccc1N1CC(C(=O)N2CCOCC2)CC1=O (stereo not given) | -12 | -4 | 4143 | -1 | 2.3 | 3 | -3
COc1cccc(C(=O)Nc2ccc(C(F)(F)F)n(C)c2=O)c1 | -95 | 2 | 2451 | 23 | 2.2 | -2 | -3
O=C(COC(=O)CNC(=O)c1ccccc1F)Nc1cccc(S(=O)(=O)N2CCCCCC2)c1 | -22 | -11 | 3241 | 5 | 0.3 | 15 | 9
CC1=CSC2=NC(=O)/C(=C/c3cccc(OC(=O)c4ccco4)c3)C(=N)N12 | -4 | -6 | 2113 | 4 | 0.3 | 4 | -1

One compound at a time (already shown):
`COCc1cc(C)n(CC(=O)Nc2ccccc2OC)c(=O)c1C#N` as listed: PrP 5UTR inh: -11; BJeLR lethal: 0; Autofluor counter: 3443; ugtP null kill: 0; RN4220 kill: 2.2; Mtb hypoxia inh: 2; Mtb hypoxia inh growth: 0
`CCSc1nnc(NC(=O)CSc2nnc(CNC(=O)c3cc(OC)c(OC)c(OC)c3)o2)s1` as listed: PrP 5UTR inh: -6; BJeLR lethal: -8; Autofluor counter: 2468; ugtP null kill: 6; RN4220 kill: 2.0; Mtb hypoxia inh: -5; Mtb hypoxia inh growth: -8

Continuation.
SMILES | PrP 5UTR inh | BJeLR lethal | Autofluor counter | ugtP null kill | RN4220 kill | Mtb hypoxia inh | Mtb hypoxia inh growth
CC(C)(C)NC(=O)C(c1cccs1)N(Cc1cccs1)C(=O)c1ccc(CN2CCOCC2)o1 (stereo not given) | -10 | 0 | 3760 | 9 | 2.1 | 5 | -9
O=C(NCCN1CCOCC1)c1ccccc1Oc1ccccc1 | -35 | 1 | 3826 | -3 | 2.3 | . | .
CN(C)S(=O)(=O)N1CCN(c2ccc([N+](=O)[O-])c(N3CCOCC3)c2)CC1 | -20 | 5 | 4517 | 7 | -1.9 | 15 | 17
C/C(=N/NC(=O)C1CCN(S(=O)(=O)c2ccc(C)cc2)CC1)c1cccc([N+](=O)[O-])c1 | 6 | 10 | 2604 | . | . | . | .
CCCCC(CC)CNC(=O)Cn1c(=O)[nH]c2ccsc2c1=O (stereo not given) | -9 | 2 | 5715 | -8 | 5.5 | -9 | -5
O=C(CNC(=O)c1cccc(Cl)c1)NCCCSc1ccccc1 | -9 | 2 | 6053 | 4 | -4.7 | 6 | 6
CCn1c(CCCNC(=O)c2ccc(F)cc2)nc2ccccc21 | -18 | -2 | 6744 | 0 | -13 | 5 | 3
CCCc1cc(C(=O)Nc2cnn(Cc3ccc(F)cc3)c2)no1 | -10 | -12 | 4554 | 4 | 9.8 | 6 | 4
CC(C)(C)n1ncc2c(=O)n(CC(=O)NCc3ccco3)cnc21 | -63 | -10 | 2753 | 7 | 0.3 | 2 | 3
O=C(NN=C1C2CC3CC(C2)CC1C3)c1cc(Cl)ccc1O | -5 | 7 | 2145 | 1 | 9.3 | . | .
O=S(=O)(N1CCCCC1)N1CCN(CC(O)COc2ccc3cc(Br)ccc3c2)CC1 (stereo not given) | -24 | -3 | 10259 | -7 | 1.3 | 3 | 9
Cc1ccc(C(=O)Oc2cc(N)n(S(=O)(=O)c3ccc(C)cc3)n2)cc1 | -2 | -4 | 2385 | 8 | 0.2 | 11 | 18
CCc1nc2sc3ccccc3c(=O)c2c(=O)n1Cc1ccco1 | 9 | -4 | 3211 | 3 | 0.6 | -6 | -3
COc1ccc(-n2nc(C(=O)NCC(=O)NCc3ccco3)c3ccccc3c2=O)c(OC)c1 | -8 | -19 | 2997 | 8 | 1.8 | 22 | 1
CCOc1ccc(NC(=O)/C=C/c2ccc(OC)cc2)c([N+](=O)[O-])c1 | -2 | 3 | 2123 | -3 | 2.7 | 6 | 4

Quoted at random: three compounds from above.
SMILES | PrP 5UTR inh | BJeLR lethal | Autofluor counter | ugtP null kill | RN4220 kill | Mtb hypoxia inh | Mtb hypoxia inh growth
CCn1c(CCCNC(=O)c2ccc(F)cc2)nc2ccccc21 | -18 | -2 | 6744 | 0 | -13 | 5 | 3
O=C(NN=C1C2CC3CC(C2)CC1C3)c1cc(Cl)ccc1O | -5 | 7 | 2145 | 1 | 9.3 | . | .
C/C(=N/NC(=O)C1CCN(S(=O)(=O)c2ccc(C)cc2)CC1)c1cccc([N+](=O)[O-])c1 | 6 | 10 | 2604 | . | . | . | .

Compound activity (PubChem)
